VDR inh = inhibitors of human vitamin D receptor | P11473 | VDR-SRC2-3 peptide fluorescence polarization, 2 h | Potency, µM, without a hit: max response, negative = inhibition, most hits filed as inhibitors | 0.93% of 400,000 active | AID 504847; active means well fitted inhibition curve with a large enough effect; inconclusive means small, poorly fitted or top-dose-only effect, or another doubt; inactive means no such curve, though single readings can be large or run the other way; further: series mostly up to about 120 µM
Target sequence (P11473 whole entry, looked up): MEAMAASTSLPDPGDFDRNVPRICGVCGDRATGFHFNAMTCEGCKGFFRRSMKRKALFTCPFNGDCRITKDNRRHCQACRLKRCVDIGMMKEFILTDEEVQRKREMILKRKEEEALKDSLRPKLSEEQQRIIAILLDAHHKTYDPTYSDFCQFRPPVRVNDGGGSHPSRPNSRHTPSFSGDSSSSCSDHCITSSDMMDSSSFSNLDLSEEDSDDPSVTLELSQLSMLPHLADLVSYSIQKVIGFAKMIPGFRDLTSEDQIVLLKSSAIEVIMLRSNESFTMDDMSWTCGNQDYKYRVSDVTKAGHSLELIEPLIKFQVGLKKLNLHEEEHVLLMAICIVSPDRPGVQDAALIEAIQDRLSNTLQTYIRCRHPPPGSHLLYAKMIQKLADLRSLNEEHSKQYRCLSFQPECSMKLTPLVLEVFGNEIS
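Two reagent solutions held at 4 deg C in the dark were dispensed, compounds pinned at 23 nl, and the mixture incubated 2 h at room temperature. Read-out: fluorescence polarization of VDR–SRC2-3 peptide binding.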
Starred values were filed as active, the others as inactive; u = inconclusive; & = joins results of further samples. On the % scale 0 is the no-effect control and ±100 the full control effect; potency means the concentration at half of the fitted maximal effect.

molecule	VDR inh
Cc1ccc2nc(-c3ccc(NS(=O)(=O)c4c(C)n(C)c(=O)n(C)c4=O)cc3)sc2c1	8%
COc1ccc(CNC(=O)CN2C(=O)C3CCCN3c3ncc(Cl)cc32)cc1 (centres undefined)	0%
CCOc1ccc(NC(=S)NS(=O)(=O)c2cc(Br)ccc2OCC)cc1	u
CCn1c(C)nnc1SCC(=O)Nc1ccc2c(c1)OCCO2	-26%
COc1cc(NC(=O)CN2CCC(C)CC2)c(C)cc1[N+](=O)[O-]	9%
O=C(OCCN1CCOCC1)c1ccccc1	-19%
O=Cc1ccc(OCc2ccccn2)cc1	7%
COc1ccc(Cl)cc1CN1CCN(c2nc(C)cc(C)c2C#N)CC1	14%
Cc1cc(O)cc(C)c1NS(=O)(=O)c1ccc2ccccc2c1	-6%
CC(C)c1nnc(NC(=O)CCC(=O)Nc2ccccc2)s1	u
C#CC[N+]1(CC#Cc2cccc3ccccc23)CCOCC1	10%
Cc1cc(C)cc(NC(=O)C2CCCN(c3nnc(-n4c(C)ccc4C)s3)C2)c1 (centres undefined)	1%
COc1ccc(Nc2nc3c([nH]2)c(=O)[nH]c(=O)n3C)cc1	-5%
COC(=O)c1ccc(-n2nnc(-c3nc(-c4ccc5c(c4)OCO5)no3)c2C)cc1	11%
COc1ccc(Br)c2c1-c1nc(NC(=O)c3ccccc3SC)sc1C2	u
C=CCn1c(SCC(=O)Nc2ccc(F)cc2)nc2ccccc2c1=O	12%
CC(C)(CNC(=O)Cc1ccc(Cl)cc1Cl)N1CCCCC1	6%
Cc1noc(C)c1COc1ccc(C(=O)N2CCN(S(=O)(=O)c3ccccc3)CC2)cc1	11%
COc1ccc(C(=O)OCC(=O)NC2CCCCCC2)c(OC)c1	-21%
Cc1nn(-c2ccccc2)c2sc(C(=O)N3CCc4ccccc4C3)cc12	-2%

In another format: results already given.
Compound: COC(=O)c1ccc(-n2nnc(-c3nc(-c4ccc5c(c4)OCO5)no3)c2C)cc1
  VDR inh: 11%

Compound: CC(C)c1nnc(NC(=O)CCC(=O)Nc2ccccc2)s1
  VDR inh: u

The results go on:
molecule	VDR inh
O=C(COC(=O)c1cc(S(=O)(=O)N2CCCCC2)ccc1Cl)NCc1ccco1	19%
CC1(C)CC2CC(C)(CN2c2ncnc3ccccc23)C1 (centres undefined)	-3%
COc1ccc(C(=O)N/C(N)=N/c2nc3ccccc3o2)cc1	13%
CN1CCN(CCCNc2nc3ccccc3c3nc(-c4ccccc4)nn23)CC1	-16%
CCN(CC)c1ncnc2c1ncn2Cc1c(Cl)cccc1Cl	0%
c1cc(C2CCN(Cc3nc(-c4ccc5c(c4)OCO5)no3)CC2)ccn1	-12%
CCOC(=O)C1C(=O)NC(N2CCN(c3ccccc3)CC2)=NC1c1ccccc1 (centres undefined)	6%
O=C(Nc1cccc(Cl)c1)c1cc(S(=O)(=O)NCCc2ccc(Cl)cc2)ccc1F	4%
COc1cccc(/C=C(\C#N)C(=O)Nc2ccc(NC(C)=O)cc2)c1OC	11%
Cc1cccc(NS(=O)(=O)c2ccc(Cl)cc2)n1	4%
CN(c1ccc(C(=O)NCc2ccccc2)cc1)S(C)(=O)=O	18%
Cc1ccc(-c2nn3c(C)nnc3c3ccccc23)cc1S(=O)(=O)NCc1ccco1	-19%
COc1ccc(CCNc2ccc(S(N)(=O)=O)cn2)cc1	12%
Cc1ccc(S(=O)(=O)N2[C@@H](c3ccc(F)cc3)C(C(=O)O)=CC[C@H]2c2cccs2)cc1	-16%
O=C(NCCc1ccccc1)c1cnc2sc(N3CCCCCC3)nn2c1=O	2%
Cn1c(N)c(C(=O)COC(=O)C2(c3ccc(F)cc3)CCCC2)c(=O)n(C)c1=O	-1%
O=S(=O)(c1ccc(Cl)s1)N1CCN(c2ncccn2)CC1	2%
CC(C)Sc1nc2c(cnn2-c2ccc(Cl)cc2)c(=O)[nH]1	u
COc1ccc(C(=O)NCc2nnc(SCC(=O)c3ccccc3)o2)cc1	3%
Cc1ccnc(N2C(=O)C3C4CC(C(Br)C4Br)C3C2=O)c1 (centres undefined)	2%
COc1ccc(Cc2nnc(SCC(=O)N3CCCC3)o2)cc1	13%
O=C(Nc1cccc2ccccc12)NC1CCCCC1	10%
COC(=O)c1cc(Cl)c(NC(=O)Cc2ccccc2)cc1OC	3%
COc1cccc(NC(=O)COc2cccc(-n3cnnn3)c2)c1	13%
c1ccc(C[n+]2cccc(-c3ccccc3)c2)cc1	u
NS(=O)(=O)c1ccc(CCNC(=O)c2ccc3c(c2)OCO3)cc1	9%
O=C(OCCOCCN=C1NS(=O)(=O)c2ccccc21)c1ccc(F)cc1	5%
CCN(CC)S(=O)(=O)N1CCC(C(=O)NC(C)CCc2ccccc2)CC1 (centres undefined)	5%
Cc1ccccc1-c1nc(Cc2ccc(Cl)cc2)no1	11%
CC(C)CCNC(=O)c1cn(C)c2ccc(S(=O)(=O)N3CCOCC3)cc2c1=O	9%
CC1CCc2sc(C(=O)NNC(=O)c3ccncc3)cc2C1 (centres undefined)	-14%
O=C(CCc1c[nH]c2ccccc12)NCC1CCCO1 (centres undefined)	2%
CC1=CC(=O)C(C(C)C)=C/C1=N/OS(=O)(=O)c1ccccc1	-27%
Cc1ccc(C2CC(c3cccc(C)c3)n3nc(N)nc3N2)cc1 (centres undefined)	-19%
CN1CCN(c2ccc(S(=O)(=O)N3CCCCC3)cc2NC(=O)c2ccc3ccccc3c2)CC1	-8%
CCOC(=O)c1c(Nc2ccc(C)cc2)nnc(-c2ccccc2)c1-c1ccccc1	-8%
Cc1nc(SCC(=O)N2CCOCC2)c2c3c(sc2n1)CCC3	-6%
COc1cccc(NC(=O)CCCN2C(=O)C3CC=CCC3C2=O)c1 (centres undefined)	-1%
Oc1ccc(-c2csc(Nc3ccccn3)n2)cc1	-22%
O=S(=O)(c1ccccc1)c1nnn2c1nc(Nc1ccccc1)c1cc(Cl)ccc12	-2%

(further entries)
SMILES	VDR inh
Nc1ccc(N2CCOCC2)cc1C(F)(F)F	-10%
COc1cccc(/C=N\NC(=O)C2=NNC(=O)C2C)c1O (centres undefined)	-3%
CC(C)(C)C(=O)Nc1cccc(S(=O)(=O)NC2=NCCC2)c1	-25%
Cc1cc(=O)n2c(sc3ccccc32)c1C#N	u
COc1ccc(COC(=O)C2=C(C)NC(=O)NC2c2cccc(OC)c2OC)cc1 (centres undefined)	11%
CC(=O)N1CCc2cc(S(=O)(=O)NC(CC(C)C)C(=O)Nc3ccc4c(c3)OCCO4)ccc21 (centres undefined)	-10%
CCc1nc(-c2cc3ccc(C)cc3[nH]c2=O)no1	-10%
Cc1nc(CN2CCCCC2)c(O)c(=O)[nH]1	u
CC(=O)c1cn(CCOc2ccc(F)cc2)c2ccccc12	-7%
CCCCC1CCC(C(=O)OC(C)C(=O)Nc2ccc(NC(C)=O)cc2)CC1 (centres undefined)	-17%
COc1ccc(O)c(C(=O)c2cnn(-c3ccc(Cl)cc3)c2)c1	4%
CC(C)OP(=O)(OC(C)C)/C(C=O)=N\Nc1ccc([N+](=O)[O-])cc1	-12%

Reformatted with each value named: entries from further up
CC(C)(C)C(=O)Nc1cccc(S(=O)(=O)NC2=NCCC2)c1
  VDR inh = -25%

CC(=O)N1CCc2cc(S(=O)(=O)NC(CC(C)C)C(=O)Nc3ccc4c(c3)OCCO4)ccc21 (centres undefined)
  VDR inh = -10%

Other compounds follow.
SMILES	VDR inh
CC(=O)N1CCN(C(=O)c2ccc(-n3c(C)ccc3C)cc2)CC1	4%
Cc1cc(NC(=O)c2ccc(C)s2)n(-c2nc3ccccc3[nH]2)n1	-18%
CCc1nnc(NC(=O)c2ccc(S(=O)(=O)N3CCCc4ccccc43)cc2)o1	-7%
O=C(Nc1ccc(F)cc1F)C1CCCN1S(=O)(=O)c1cccc2nsnc12 (centres undefined)	-13%&-14%
CC(C)CN1C(=O)NC(NS(=O)(=O)c2ccc(N)cc2)(C(F)(F)F)C1=O (centres undefined)	-3%
CC(OC(=O)Cc1n[nH]c(=O)c2ccccc12)C(=O)Nc1ccc(Cl)cn1 (centres undefined)	-12%
O=C(CCOc1ccccc1)NCc1ccccc1	12%
O=C(COn1nnc2ccc(S(=O)(=O)N3CCOCC3)cc21)Nc1c(F)c(F)c(F)c(F)c1F	1%
CCOC(=O)N1CCN(C2CCCN(C(=O)c3ccccc3N(C)C)C2)CC1 (centres undefined)	-15%
OCn1ncn(-c2ccccc2)c1=S	10%
CCCCn1c(N)c(N(CC(C)C)C(=O)CSCC(=O)Nc2cccc(C)c2)c(=O)[nH]c1=O	5%
CC(C)(C)C(=O)NCc1ccc(C(=O)CSc2nnc(C3CC3)n2C2CC2)s1	-2%
CC(C)OCCCNC(=O)c1cc(-c2cccnc2)nc2ccccc12	8%
CC(=O)Nc1ccc(SCCN2CC[C@@H](O)CCC2=O)cc1	u
Nc1nnc(CC(=O)N/N=C/c2ccc(-c3ccc(Cl)cc3Cl)o2)s1	-1%
COc1ccccc1CCNC(=O)c1csc2c1CCCC2	-9%
CCCCCc1cc(=O)oc2c(C(CCN3CCCC(C)C3)c3ccc(N(C)C)cc3)c(OC)cc(OC)c12 (centres undefined)	-2%
Cc1cccc(C)c1NC(=O)C/C(N)=N/O	-5%
CC(=O)Nc1cccc(C(=O)/C=C/c2cccs2)c1	-29%
COc1cc(N)c(Cl)cc1C(=O)OCC(=O)N1CCCC1	-6%
COc1ccc(Oc2ncnc3c2oc2ccccc23)cc1	12%
Cc1cccc(C(=O)NNC(=O)CCCCC(=O)NNC(=O)c2cccc(C)c2)c1	-16%
COc1ccc(/C=C2/C(=O)ON=C2C)cc1Br	u
CC(=O)N1C(C(=O)O)Cc2c([nH]c3ccccc23)C1C (centres undefined)	2%

Pulled one by one from the entries so far, seven records:
SMILES	VDR inh
CCCCCc1cc(=O)oc2c(C(CCN3CCCC(C)C3)c3ccc(N(C)C)cc3)c(OC)cc(OC)c12 (centres undefined)	-2%
CC(=O)N1C(C(=O)O)Cc2c([nH]c3ccccc23)C1C (centres undefined)	2%
CC(=O)Nc1ccc(SCCN2CC[C@@H](O)CCC2=O)cc1	u
COc1ccccc1CCNC(=O)c1csc2c1CCCC2	-9%
Nc1nnc(CC(=O)N/N=C/c2ccc(-c3ccc(Cl)cc3Cl)o2)s1	-1%
COc1cc(N)c(Cl)cc1C(=O)OCC(=O)N1CCCC1	-6%
COc1ccc(Oc2ncnc3c2oc2ccccc23)cc1	12%

(list continues)
SMILES	VDR inh
Fc1ccc(CSc2ncnc3sc4c(c23)CCCC4)cc1	-10%
COc1ccc(/C(O)=C2/C(=O)C(=O)N(Cc3cccnc3)C2c2ccco2)cc1OC (centres undefined)	-25%
Cc1ccc(C2CCN(C(=S)Nc3cccc(Cl)c3)C2)cc1 (centres undefined)	1%
CCCS(=O)(=O)Nc1c(C(=O)O)[nH]c2ccccc12	1%
CCn1c(SCC(=O)Nc2nc(-c3ccccc3)cs2)nc2c1c(=O)n(C)c(=O)n2C	2%
CC(=O)N1CCC2(CCCN(c3cccc(-c4ccccc4)c3)C2)CC1	u
O=C(c1ccc(S(=O)(=O)c2cccc(Cl)c2)c([N+](=O)[O-])c1)N1CCN(c2ccccn2)CC1	-16%
Cc1cc(C(=O)COC(=O)c2ccccc2O)c(C)n1Cc1cccs1	18%
O=C(CCN1CCCCC1)NNC(=S)NC(=O)c1ccc(Br)cc1	-6%
O=S(=O)(Cc1ccccc1)NCc1cccnc1	10%
Cc1ccc(CCC(=O)NCc2ccccc2)o1	-2%
COc1ccc(S(=O)(=O)N2CCCC(C(=O)NCc3ccncc3)C2)cc1 (centres undefined)	-15%

Continued; it opens with the three that closed the last part.
SMILES	VDR inh
O=S(=O)(Cc1ccccc1)NCc1cccnc1	10%
Cc1ccc(CCC(=O)NCc2ccccc2)o1	-2%
COc1ccc(S(=O)(=O)N2CCCC(C(=O)NCc3ccncc3)C2)cc1 (centres undefined)	-15%
O=C1Nc2ccccc2/C1=N/N=C/c1ccc(-c2ccc([N+](=O)[O-])cc2)o1	-12%
COc1cc(NC(C)CCc2ccccc2)cc(OC)c1OC (centres undefined)	u
CCOC(=O)N1CCN(CCC(=O)Nc2cccc(Cl)c2C)CC1	-7%
C[C@@H](CCc1ccc(O)cc1)NCCc1ccc(O)c(O)c1	7%
CC(C)Cc1ccc(C#N)c(SCC(N)=O)n1	-10%
NC(=O)C1=C[C@@H](c2ccc(C(F)(F)F)cc2)C[C@@H](OCCCCO)O1	11%
O=C(NCCc1cccs1)C1CC(c2cccc([N+](=O)[O-])c2)=NO1 (centres undefined)	10%
Cc1ccc(NC(=O)C(=O)NCCN2CCN(S(C)(=O)=O)CC2)cc1	5%
O=C(Nc1ccnn1C1CCN(Cc2ccc(C#CCCO)cc2)CC1)c1cccc(F)c1	-25%
COc1ccc2c(c1)c(=O)cc(C)n2CC(=O)NCc1ccco1	-9%
O=C(CCC1CCCC1)N1CCN(S(=O)(=O)c2ccc(Br)cc2)CC1	-7%
COc1ccc(Cl)cc1NC(=O)CCNS(=O)(=O)c1cccc2nonc12	-10%
O=C(O)CP(=O)(c1ccccc1)c1ccccc1	-9%
Cc1ccc(-c2cc3c(nn2)-c2ccccc2C3=O)cc1	-4%
COc1ccc(CCNC(=O)c2cnccn2)cc1	-5%
Cc1ccc(C(=O)c2c3ccccc3[n+]([O-])n2CCC(N)=O)cc1	8%
CCCC(=O)Nc1ccc(C(=O)COC(=O)C2=COCCO2)cc1	-4%
Cc1ccc(NC2(C(F)(F)F)N=C(c3ccccc3)NC2=O)nc1 (centres undefined)	9%
Cc1ccsc1C1C2=C(CCCC2=O)Nc2ncnn21 (centres undefined)	-18%
Cc1ccc(NS(=O)(=O)c2ccc(C(=O)N3CCCCCCC3)cc2)cc1	-13%
Cc1nc(C(=O)NCc2ccccc2)sc1C1(C)CC(c2cccnc2)=NO1 (centres undefined)	7%

Compound activity (PubChem BioAssay)

These rows are one share of the data. The share of hits here may be higher or lower than overall.
